# PINK1 expr mod: A Quantitative High throughput Screen to Identify Chemical Modulators of PINK1 Expression | PINK1 immunofluorescence, high-content cytometry, 24 h | Potency, µM (top dose mostly 76.6 µM), inactives show at the highest dose activation (PINK1 increase), usual class: activators | hit rate 0.2% among 410,000; active = well fitted activation curve with a large enough effect; inconclusive = small, poorly fitted or top-dose-only effect; inactive = flat fitted curve, though single readings scatter; cell line not stated here;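 further: potency means the concentration at half of the fitted maximal effect; % of control where 0% means no effect; nearly all actives have a fitted effect of over 65% in size; a mitochondrial uncoupler was the plate control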
#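 Compound titrations (5 concentrations, 24 h) on a stable cell line; DMSO and CCCP controls. Endpoint: fixed-cell PINK1 immunofluorescence with mitochondrial, cell and nuclear markers, scanned by microplate cytometer.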
# TRPML1 ag: qHTS for Agonists of the Human Mucolipin Transient Receptor Potential 1 (TRPML1); Mucolipin-1 (Homo sapiens), Q9GZU1; TRPML1-expressing cells, Ca2+ dye fluorescence, FDSS; host cell line not named in the record; reference of the full effect not given here; activation, % (concentration not given with the values); hit rate 0.12% among 410,000; AID 624414, 2012; in the data active = activation above about 50%; inconclusive = about 30% to 50%; inactive = below about 30%; further: 0% is about no effect; the text of the record puts the active cut at 80%
#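 Agonist activity was taken from a 110 s kinetic Ca2+ dye read on the FDSS after pinning compounds onto TRPML1-DL cells. The cells were seeded at 1,500/well with Tet inducer, incubated about 16 h, then dye-loaded at room temperature.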
# D2 ag: Beta-Arrestin HTS for Positive Allosteric Modulators of the Human D2 Dopamine Receptor: Agonists; D(2) dopamine receptor (Homo sapiens), P14416; DiscoveRx PathHunter D2 beta-arrestin, luminescence, 90 min; 100% = 57 uM dopamine signal; activation, % (concentration not given with the values); hit rate 0.084% among 360,000; in the data active = activation above about 40%; inconclusive = about 15% to 40%; inactive = below about 15%; further: compound concentration not given in the record; the text of the record calls up to 30% inactive
#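 Agonist mode: compounds alone added to overnight-plated D2 PathHunter cells for 90 min at 37 C, with 57 uM final dopamine (EC100) defining full response. Beta-arrestin recruitment detected by chemiluminescent reagent, read after 1 h at ambient temperature.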
# TRPML1 blocker: qHTS for Inhibitors of the Human Mucolipin Transient Receptor Potential 1 (TRPML1); hit rate 0.02% among 390,000; TRPML1-inducible cells, Ca2+ dye fluorescence, FDSS; stronger effect = lower value; inhibition of EC80 agonist-evoked calcium signal; activity change, negative = inhibition, % (no concentration beside the values); in the data active means activity change below about -50%; inconclusive means about -30% to -50%; inactive means above about -30%;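 further: stimulus is agonist 54-4 at its EC80 concentration; on the % scale 0 is the no-effect control and ±100 the full control effect; compound concentration not given in the record; the text of the record puts the active cut at -80%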
#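 TRPML1-DL cells, Tet-induced overnight (~16 h, 37 °C) at 1,500 cells/well, were loaded with Ca8 no-wash dye plus quencher for 45-90 min at room temperature. Compounds were pinned during FDSS kinetic reading; agonist 54-4 at EC80 (4 uM final) then added.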
# Six1-Eya2 inh: qHTS Assay for Inhibitors of the Six1/Eya2 Interaction | hit rate 0.56% among 360,000 | Homeobox protein SIX1 (Homo sapiens) + Protein phosphatase EYA2 (Homo sapiens), … | AlphaScreen GST-Six1/His-Eya2 binding, biochemical; stronger effect = lower value; control for the full effect not named in the record | activity change, % (concentration not given with the values); in the data active = activity change below about -65%; inconclusive = about -30% to -65%; inactive = above about -30%; further: on the % scale 0 is the no-effect control and ±100 the full control effect
# Target sequence (O00167 whole entry, looked up): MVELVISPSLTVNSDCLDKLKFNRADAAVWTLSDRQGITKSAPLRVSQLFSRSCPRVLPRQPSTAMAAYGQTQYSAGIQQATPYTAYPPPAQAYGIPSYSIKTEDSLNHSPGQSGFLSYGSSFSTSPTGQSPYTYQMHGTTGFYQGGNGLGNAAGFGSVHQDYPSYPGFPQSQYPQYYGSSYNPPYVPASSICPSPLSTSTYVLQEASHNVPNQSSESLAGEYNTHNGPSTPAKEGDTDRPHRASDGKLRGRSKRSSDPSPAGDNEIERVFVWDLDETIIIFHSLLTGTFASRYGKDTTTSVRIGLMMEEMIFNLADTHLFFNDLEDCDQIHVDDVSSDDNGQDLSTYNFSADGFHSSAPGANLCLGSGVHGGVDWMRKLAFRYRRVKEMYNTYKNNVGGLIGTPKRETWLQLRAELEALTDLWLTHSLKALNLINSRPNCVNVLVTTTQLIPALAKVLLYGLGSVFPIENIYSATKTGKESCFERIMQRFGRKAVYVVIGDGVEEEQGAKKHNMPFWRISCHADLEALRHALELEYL
# Target sequence (Q15475 whole entry, looked up): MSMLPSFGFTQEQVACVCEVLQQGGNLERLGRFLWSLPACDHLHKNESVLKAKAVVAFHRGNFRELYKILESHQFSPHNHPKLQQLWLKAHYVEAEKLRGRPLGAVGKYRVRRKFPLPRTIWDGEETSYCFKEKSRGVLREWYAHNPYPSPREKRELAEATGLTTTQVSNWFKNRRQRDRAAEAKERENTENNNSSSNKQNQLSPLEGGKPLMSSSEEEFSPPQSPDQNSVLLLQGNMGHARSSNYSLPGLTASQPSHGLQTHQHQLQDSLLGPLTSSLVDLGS
#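 AlphaScreen with GST-Six1 and His-Eya2 (5X mix: 250 nM and 500 nM), glutathione donor and nickel acceptor beads; buffer 50 mM Tris pH 8.0, 300 mM NaCl, 1 mM TCEP; 1 h at 37 C in the dark.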
# CtBP-E1A inh: qHTS Assay for Inhibitors of the CtBP/E1A Interaction; AlphaScreen GST-E1A/His-CtBP binding, 1536-well; stronger effect = lower value; control for the full effect not named in the record; activity change, % (test concentration not listed); hit rate 0.49% among 340,000; AID 651724, 2012; in the data active means activity change below about -65%; inconclusive means about -30% to -65%; inactive means above about -30%; further: on the % scale 0 is the no-effect control and ±100 the full control effect; compound concentration not given in the record
#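 Homogeneous bead-based format: GST-tagged E1A captured on glutathione donor beads, His-tagged CtBP on nickel acceptor beads; compounds precede bead addition by 2 h at 37 °C.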
# An asterisk follows results filed as active; ? = inconclusive; / = not tested or not shown; & = joins results of further samples; [ ] = another dose, or the depositor's remark. Random draw from the library; any-hit rate near 1%.
# The first 3 records, to show the layout:
SMILES,PINK1 expr mod,TRPML1 ag,D2 ag,TRPML1 blocker,Six1-Eya2 inh,CtBP-E1A inh
COc1ccc(NC(=O)Nc2nnc(N3CCC(C)CC3)s2)cc1OC,2.0%,-0.4,-6.1,-7,-2,3
COc1ccc(C(O)c2ncc(-c3ccc(Cl)cc3)[nH]2)cc1 (stereo unspecified),0.8%,-0.6,-1.1,/,-22,-10
CCC(C)NC(=O)CS(=O)(=O)Cc1nc(-c2cccc(OC)c2)oc1C (stereo unspecified),-0.5%,-0.1,-1.3,-9,-3,3

# Main list (from the top)
SMILES,PINK1 expr mod,TRPML1 ag,D2 ag,TRPML1 blocker,Six1-Eya2 inh,CtBP-E1A inh
COc1ccc(NC(=O)Nc2nnc(N3CCC(C)CC3)s2)cc1OC,2.0%,-0.4,-6.1,-7,-2,3
COc1ccc(C(O)c2ncc(-c3ccc(Cl)cc3)[nH]2)cc1 (stereo unspecified),0.8%,-0.6,-1.1,/,-22,-10
CCC(C)NC(=O)CS(=O)(=O)Cc1nc(-c2cccc(OC)c2)oc1C (stereo unspecified),-0.5%,-0.1,-1.3,-9,-3,3
CCOC(=O)c1c(C)[nH]c(C)c1C(=O)COC(=O)c1ccc(Cl)nc1,-2.0%,-0.4,2.8,0,-8,-3
COC(=O)CCC(=O)Nc1cccc(Br)c1,-0.2%,0.2,-1.5,-22,-6,1
O=[N+]([O-])c1cc(-c2csc(NC(CO)c3nc4ccccc4n3CCOCCO)n2)ccc1Cl (stereo unspecified),-0.2%,-0.8,0.8,3,-12,-11
O=C(COC(=O)Cc1ccc([N+](=O)[O-])cc1)NC1CCCCCC1,0.2%,-0.6,-4.9,10,-4,0
COc1ccc2c(c1OC)C(=O)OC2N1C(=O)CC[C@H]1C(=O)Nc1ccc2c(c1)OCO2 (stereo partly specified),0.6%,/,10,/,4,10
COc1ccc(C)cc1NC(=O)CN1CCN(S(=O)(=O)c2ccc(F)cc2)CC1,6.9%,-0.7,-2.9,-3,1,-2
COc1ccc(OC)c(NS(=O)(=O)c2ccc(NC(=O)c3ccc(NS(C)(=O)=O)cc3)cc2)c1,6.6%,0.5,0.0,0,-5,-1

# Random excerpt: two compounds from above
SMILES,PINK1 expr mod,TRPML1 ag,D2 ag,TRPML1 blocker,Six1-Eya2 inh,CtBP-E1A inh
COC(=O)CCC(=O)Nc1cccc(Br)c1,-0.2%,0.2,-1.5,-22,-6,1
COc1ccc(OC)c(NS(=O)(=O)c2ccc(NC(=O)c3ccc(NS(C)(=O)=O)cc3)cc2)c1,6.6%,0.5,0.0,0,-5,-1

# Exported with each value named: 3 of the compounds above
compound: O=C(COC(=O)Cc1ccc([N+](=O)[O-])cc1)NC1CCCCCC1
  PINK1 expr mod: 0.2%
  TRPML1 ag: -0.6
  D2 ag: -4.9
  TRPML1 blocker: 10
  Six1-Eya2 inh: -4
  CtBP-E1A inh: 0
compound: COc1ccc2c(c1OC)C(=O)OC2N1C(=O)CC[C@H]1C(=O)Nc1ccc2c(c1)OCO2 (stereo partly specified)
  PINK1 expr mod: 0.6%
  TRPML1 ag: /
  D2 ag: 10
  TRPML1 blocker: /
  Six1-Eya2 inh: 4
  CtBP-E1A inh: 10
compound: COc1ccc(C)cc1NC(=O)CN1CCN(S(=O)(=O)c2ccc(F)cc2)CC1
  PINK1 expr mod: 6.9%
  TRPML1 ag: -0.7
  D2 ag: -2.9
  TRPML1 blocker: -3
  Six1-Eya2 inh: 1
  CtBP-E1A inh: -2

# The list continues:
SMILES,PINK1 expr mod,TRPML1 ag,D2 ag,TRPML1 blocker,Six1-Eya2 inh,CtBP-E1A inh
CC(=O)c1ccc(NC(=O)Cn2cnc(S(=O)(=O)N3CCOCC3)c2)cc1,-0.5%,-0.7,-2.2,-2,1,7
Cc1ccc(-n2ncc3c(Nc4c(C)n(C)n(-c5ccccc5)c4=O)ncnc32)c(C)c1,/,-0.2,0.7,3,0,8
CCOc1cc(C(=O)Nc2ccc(NC(=O)c3cc4ccccc4o3)c(OC)c2)cc(OCC)c1OCC,2.1%,-0.2,/,19,/,/
Cc1cc(C(=O)COc2ccc(F)cc2Br)c(C)n1C1CC1,?,0.3,-3.6,3,-15,-3
CCOc1ccc(NC(=O)CN(C)CC(=O)Nc2ccc(F)c(F)c2F)cc1OCC,2.5%,-1.1,-4.6,1,4,-5
O=C(c1cccc(S(=O)(=O)N2CCN(c3ccc(F)cc3)CC2)c1)N1CCCC(C(F)(F)F)C1 (stereo unspecified),2.4%,-0.7,-1.9,-18,-14,-6
CS(=O)(=O)c1nc(S(=O)(=O)c2ccc(Cl)cc2)c(N2CCN(CCO)CC2)s1,-1.0%,-0.4,1.4,7,2,3
CCOC(=O)C(=CNCC(=O)O)C(=O)OCC,1.8%[38.3 µM],-0.6,0.3,12,7,12
CC(CCc1ccccc1)NCC(O)c1cccc([N+](=O)[O-])c1 (stereo unspecified),0.1%,-0.3,9.8,4,-4,12
COc1ccc(NS(=O)(=O)c2ccc(S(=O)(=O)N3CCCC3)cc2)cc1,-1.3%,0.6,-1.0,-13,8,-11
OCC[C@@H]1C[C@H](O)[C@@H](O)[C@@]2(CCCc3ccccc3O2)O1,1.3%,-0.4,-6.0,5,1,6
O=C(CCSc1nnc2ccc3ccccc3n12)Nc1ccc(F)cc1,4.9%,-0.1,-2.6,-4,26,3
Cn1c(COc2ccc(F)cc2)nc2ccccc21,-1.5%,0.5,-1.7,-6,10,9
COc1ccc(N=Nc2c(C)[nH][nH]c2=O)cc1,-0.6%,2.3,-5.8,-9,-2,-16
Cc1ncc([N+](=O)[O-])n1CC(=O)Nc1cc(Cl)ccc1Cl,3.4%,-0.1,-2.2,1,3,2
O=c1cc(-c2ccco2)oc2ccccc12,-0.3%,-1.3,0.0,-9,-12,-12
O=C(Oc1ccc(=O)n(-c2ccccc2)n1)c1ccc(Cl)cc1,-0.5%,-0.8,-3.3,12,-3,33
COc1cccc(C(=O)Nc2nnc(S(=O)(=O)N3CCOCC3)s2)c1,1.0%&-0.9%,-0.4&0.2,-5.6,3&-1,-2,-4
CN(C)CCOc1ccc2c(c1)Sc1ccccc1CC2=O,0.2%,0.1,-4.8,-3,2,-8
COC(=O)c1cc(=O)n2c(-c3ccc(OC)cc3)csc2n1,-0.2%,1.0,-3.1,-7,0,9
O=C(COC(=O)c1ccccn1)NNC(=O)c1ccc([N+](=O)[O-])cc1,2.0%,0.5,-3.5,15,-10,?
CCCCc1cc2c(cc1NC(=O)CN1CCCCC1)OCCO2,7.3%,2.3,-6.3,1,7,-4
COC(=O)C1=C(C)N(Cc2ccccc2)C(=NCCCCO)N[C@H]1CCc1ccccc1,-1.2%,-0.9,-2.4,1,-1,1
NC(=O)C1=C[C@H](c2ccc(C(F)(F)F)cc2)C[C@H](OCc2ccc(CO)cc2)O1,0.4%,-0.5,2.1,4,7,-1
Cc1cc(Nc2ccccc2)cc(=O)n1C,2.4%,3.2,1.7,5,-1,/
CCOC(=O)c1[nH]c(=O)[nH]c1CSCCO,1.6%,-0.4,-2.4,1,-2,-4
O=C1CCCCN1CC(=O)N1CCCC(Nc2ccc(F)cc2)C1 (stereo unspecified),-0.4%,-0.8,2.4,0,0,3
CCN(CC)S(=O)(=O)c1ccc(-c2nnc(SCC(=O)Nc3ccc(OC)c(OC)c3)o2)cc1,/,-0.1,-1.5,4,2,7
CCOC(=O)c1oc2ccc(Br)cc2c1COC(=O)C1=COCCO1,-1.3%,1.7,-0.9,-5,5,11
Cn1c(=O)[nH]c2ccc([N+](=O)[O-])nc21,-0.4%,3.6,-4.9,22,-13,9
COc1ccc(NC(=O)c2ccc(CN3CCc4ccccc4C3)cc2)c(OC)c1,-0.3%,1.7,-0.6,8,-24,-5
O=C1NC(=S)NC1=Cc1ccc(O)cc1,-0.4%,-0.4,-8.6,-4,-7,3
Cn1c(SC2CCCCC2=O)nnc1-c1ccccc1F (stereo unspecified),-1.3%,0.3,4.4,4,5,-2
COc1ccc(NC(=O)CSc2nnc(-c3ccc(C)cc3)n2N)cc1,-1.7%[38.3 µM],1.7,-0.1,35,3,8
CCOC(=O)c1ccccc1NC(=O)CSc1nc2ccccc2c(=O)[nH]1,4.5%,2.2,-1.2,12,-10,19
CC(C)CCn1c(=O)c2cccnc2n(CC(=O)Nc2ccccc2F)c1=O,-0.6%,0.1,/,-10,/,/
CC(=O)c1ccccc1NS(C)(=O)=O,0.8%,0.2,-1.8,-5,1,10
Cc1ccccc1CSc1nc(C(C)(C)C)cc(=O)[nH]1,11%,-0.6,0.7,6,12,5
O=[N+]([O-])c1ccc(NCCNc2ccc(Cl)nn2)cc1,0.7%,-1.0,-3.5,3,-7,2
Cn1c(=O)[nH]c(=O)c2c1nc(N(CCO)Cc1ccccc1)n2Cc1ccccc1Cl,0.5%,-0.2,-3.4,-18,0,6
N#Cc1c(-c2ccc(F)cc2)cc(C2CC2)nc1SCC(=O)c1cccs1,13%,-0.1,2.4,-17,29,8
O=C(O)CNC(=O)c1cccc(C(F)(F)F)c1,-1.9%,-0.2,-5.4,-25,15,/
COc1ccc(CC(=O)NNC(=O)c2nn(Cc3ccccc3)c(=O)c3ccccc23)cc1OC,3.7%,-0.7,-2.7,7,-2,/
O=[N+]([O-])c1ccc(Sc2ccccc2)nc1,0.0%,-0.8,0.4,38,-7,-11
O=C(COC(=O)CSc1ccc(F)cc1)NC1CC1,2.3%,-1.3,1.8,-9,0,8
CC(=O)Oc1ccc(N(C(C)=O)S(=O)(=O)c2ccc(Cl)cc2)c2ccccc12,-0.8%,1.5,?,12,-3,3
Cc1cc(C)nc(/N=C2\NC(=O)CC3C(=O)NCCN23)n1 (stereo unspecified),-0.5%,0.4,-1.8,-5,-3,8
O=C(O)c1ccccc1C(=O)NCC(O)COCC1CC=CCC1 (stereo unspecified),-1.5%[38.3 µM],2.5,-2.4,27,2,19
Cc1cc(NC(=O)c2cc(-c3ccc(F)cc3)on2)nn1Cc1ccc(Cl)cc1,2.7%,2.3,/,12,/,/

# Screening results from PubChem.
